Bioassay records from PubChem BioAssay.
AID504770 – growth inhibition of E. coli YBA685, primary screen, V. cholerae RctB inhibitors; z-score (no concentration beside the values); E. coli YBA685 rctB-dependent plasmid, OD600 growth, 3 h; hits give low values; 130,000 compounds, 0.27% hits; AID 504770, 2011;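 active = z-score under -2 on both plates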;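 also: wells of about 30 µL received 100 nL stock; score is relative to mean and SD of the test wells; the first replicate is given; strong numbers were not always called active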
Ba CapD inh – Bacillus anthracis CapD inhibitors, primary screen, biochemical, fluorescence intensity; z-score (no concentration beside the values); purified CapD enzyme, fluorescence intensity read-out; hits give low values; some hits fall short of the stated cut; 140,000 compounds, 0.23% hits; AID 492967, 2010;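 active = z-score under -4 in either of two replicates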;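 also: stock transfer was 100 nL into about 40 µL; score is relative to mean and spread of the plate; one replicate is shown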
* = called active by the depositor; . = not tested or not shown.

SMILES | AID504770 | Ba CapD inh
CSc1nn(-c2ccccc2)cc1C(=O)Nc1cccc(C(F)(F)F)c1 | -0.3 | 2.5
O=c1nc(-c2ccccc2)nc(-c2ccccc2)[nH]1 | . | -0.23
O=[N+]([O-])c1cc(Oc2ccccc2)cc(Oc2ccc3oc4c(c3c2)CCCC4)c1 | . | -0.62
CC(C)(C)C(=O)Nc1cccc2[nH]ncc12 | 2.1 | 0.46
C=C1CSc2nc(=O)c3c4c(sc3n21)CCC4 | -0.65 | .
CNC1C(O)C(OC2C(N)CC(N)C(OC3OC(CN)=CCC3N)C2O)OCC1(C)O (stereo not drawn) | . | -0.23
Cc1ccc(Nc2nc(C(=O)NCc3ccco3)cs2)cc1 | 0.1 | .
COc1ccc(Cl)cc1S(=O)(=O)N1CCN(Cc2ccc3c(c2)OCO3)CC1 | 0.25 | -0.1
Cc1cc(C)n2c(SC3CCCCC3NS(=O)(=O)c3ccccc3)nnc2n1 (stereo not drawn) | 1.9 | -0.3
CC(C)C(C(=O)Nc1ccc(F)cc1)N1Cc2ccccc2C1=O (stereo not drawn) | -0.3 | 0.27
O=S(=O)(NC1CCCC1)c1ccccc1Cl | 0.8 | .
CCC1CCc2nc3sc(C(=O)Nc4ccccc4C(F)(F)F)c(N)c3cc2C1 (stereo not drawn) | 0.5 | 10

Rewritten field by field: entries from further up.
structure: C=C1CSc2nc(=O)c3c4c(sc3n21)CCC4
  AID504770: -0.65
  Ba CapD inh: .

structure: CNC1C(O)C(OC2C(N)CC(N)C(OC3OC(CN)=CCC3N)C2O)OCC1(C)O (stereo not drawn)
  AID504770: .
  Ba CapD inh: -0.23

structure: Cc1ccc(Nc2nc(C(=O)NCc3ccco3)cs2)cc1
  AID504770: 0.1
  Ba CapD inh: .

structure: COc1ccc(Cl)cc1S(=O)(=O)N1CCN(Cc2ccc3c(c2)OCO3)CC1
  AID504770: 0.25
  Ba CapD inh: -0.1

Additional entries follow.
SMILES | AID504770 | Ba CapD inh
COCCn1c(C)cc(C(=O)COC(=O)CN2C(=O)c3ccccc3C2=O)c1C | 1 | .
O=S(=O)(c1ccccc1Cl)N1CCc2c([nH]c3ccccc23)C1 | . | 0.015
O=C1NCCN/C1=C\c1ccc2ccccc2n1 | -0.5 | .
CCCN(CCC)S(=O)(=O)c1ccc(C(=O)Nc2cccc(SC)c2)cc1 | -0.25 | -1
COC(=O)c1cc(NC(=O)C2CCCN(S(=O)(=O)N3CCC(C)CC3)C2)cc(C(=O)OC)c1 (stereo not drawn) | 0.15 | 0.095
O=C1OCc2cc(NS(=O)(=O)c3ccc(C4CCCCC4)cc3)ccc21 | 0.75 | -0.27
CC1(C)Cc2ccccc2C2=C(C(=O)N3CCCC3)C(=O)C(=O)N21 | . | -0.9
Cn1cc2c(=O)[nH]nnc2n1 | -0.05 | 0.35
O=C(CSC(=O)c1sc2ccccc2c1Cl)Nc1ccc(F)cc1 | . | -0.11
O=C(CN1CCN(c2ncccn2)CC1)N1CCCC1 | 0.35 | .
CCC1CCCCN1C(=O)CSc1ccc(Cl)cc1 (stereo not drawn) | -0.15 | -0.29
CCSc1ncnc2c(C#N)c3n(c12)CCCCC3 | . | 0.46
CCOC(=O)c1cc(C(C)(C)C)[nH]n1 | -0.25 | -0.18
CCc1ccccc1N1CCN(S(=O)(=O)c2cccc(Cl)c2Cl)CC1 | . | 0.54
CCOC(=O)Nc1nnc(-c2ccccc2)s1 | -0.2 | .
CCOc1ccc(OCCCC(=O)NC2=NCCS2)cc1 | 0.1 | .
Cc1c(C(=O)O)oc2ccc3c(c12)C(O)CC(C)(C)O3 (stereo not drawn) | 1.1 | 23
COc1ccc(Cn2cc(-c3cccc(C(F)(F)F)c3)cc(C#N)c2=O)cc1 | . | 39
CCCCN(CC)C(=O)Nc1cn(C)c(=O)c2ccccc12 | -0.9 | 36
Cc1cccc2c3nc4ccccc4nc3n(CC#N)c12 | 1.7 | -0.16
CC1CCN(S(=O)(=O)c2ccc(NC(=O)Cn3c(=O)sc4ccccc43)cc2)CC1 | 0.3 | 0.55
CCOC(=O)c1c(SC)nc2c(Cl)cccc2c1N(C)CCOC(=O)N1CCC(O)(c2cccc(C(F)(F)F)c2)CC1 | . | -1.3
COc1ccc(C2C(C#N)=C(N)N(c3ccccc3F)C3=C2C(=O)CC(C)(C)C3)cc1OC (stereo not drawn) | . | 1.2
CCCCc1sc(N)nc1-c1ccc2c(c1)CCN2S(C)(=O)=O | -0.05 | .

Of the compounds above, 6 have four or more nitrogen atoms:
SMILES | AID504770 | Ba CapD inh
CNC1C(O)C(OC2C(N)CC(N)C(OC3OC(CN)=CCC3N)C2O)OCC1(C)O (stereo not drawn) | . | -0.23
Cc1cc(C)n2c(SC3CCCCC3NS(=O)(=O)c3ccccc3)nnc2n1 (stereo not drawn) | 1.9 | -0.3
Cn1cc2c(=O)[nH]nnc2n1 | -0.05 | 0.35
O=C(CN1CCN(c2ncccn2)CC1)N1CCCC1 | 0.35 | .
CCSc1ncnc2c(C#N)c3n(c12)CCCCC3 | . | 0.46
Cc1cccc2c3nc4ccccc4nc3n(CC#N)c12 | 1.7 | -0.16

Following part.
SMILES | AID504770 | Ba CapD inh
CC(C)(C)NC(=O)COc1cc(N2CCOCC2)c2ccccc2c1Cl | -0.55 | 24
COCCN1CN=C(Nc2nc3ccccc3s2)NC1 | -1.1 | -0.14
O=C(CN1CCN(c2ccccc2Cl)CC1)N1CCNC1=O | -0.45 | .
O=C(O)CCOC(Cc1cnccn1)c1ccc(C(F)(F)F)cc1 (stereo not drawn) | . | -0.76
CCOc1ccc(I)cc1C#N | -1.1 | -0.17
CC(C)(C)c1cc2cc(N(Cc3cccc(Cl)c3)C(=O)C(c3ccccc3)c3ccccc3)ccc2[nH]1 | . | -0.11
O=C(NC1CCN(C(=O)Nc2cccc(F)c2)CC1)c1ccco1 | -1.6 | .
CN1CCN(C(=S)NC(=O)c2ccccc2)CC1 | 0.9 | .
COc1ccc2c(c1)C(=NNC(=O)c1ccccn1)c1cc(OC)ccc1-2 | . | 0.32
Cc1ccc(C(=O)NC(C)C(c2cccs2)N2CCN(C)CC2)cc1 (stereo not drawn) | -0.5 | .
Cc1c(C(=O)Nc2ccc(N3CCOCC3)c(Cl)c2)cnn1-c1ccc(F)cc1 | -1.1 | 0.14
CC(=O)Nc1ccc(SCC(=O)N2N=C(c3ccc(Cl)cc3)CC2c2ccco2)cc1 (stereo not drawn) | 0.65 | .
CCOC(=O)CSC1=C(C#N)C(c2ccc3c(c2)OCO3)CC(=O)N1 (stereo not drawn) | -1.4 | -0.015
Cc1cc(NC(=O)/C(=C/c2cccc([N+](=O)[O-])c2)NC(=O)c2ccccc2Br)ccc1Br | . | -0.28
CCN(Cc1ccccc1)C(=O)c1ccc(CS(=O)c2ccccc2C)o1 (stereo not drawn) | -0.25 | 0.15
CC(C)(C)c1ccc(-c2nc(SCc3ccccc3)c(C#N)c3c2CCC3)cc1 | . | 0.3
Cc1c(C(C)OC(=O)Nc2cccc(C(F)(F)F)c2)sc2ncnn12 (stereo not drawn) | . | 0.21
COc1ccc(N2C(N)=C(C#N)C(c3ccc(Br)s3)C3=C2CC(C)(C)CC3=O)cc1 (stereo not drawn) | . | -0.68
Cc1ccc(/C(O)=C(\C#N)c2nc3ccccc3s2)cc1C | 0.65 | .
CC1C(=O)C(C)C(c2ccc(O)cc2)NC1c1ccc(O)cc1 (stereo not drawn) | -1.3 | 0.27
CCOC(=O)c1[nH]ncc1Sc1ccc(Cl)cc1 | -0.2 | 10
NC(=O)c1ccc(-c2nnc(-c3ccccc3)o2)cc1 | 3.9 | -0.045
O=C(NCc1cccnc1)/C(=C\c1ccc(Br)cc1)S(=O)(=O)c1ccccc1 | 0.15 | -0.55
COc1ccccc1/C=N/N(CCC#N)C1=NS(=O)(=O)c2ccccc21 | -0.95 | 5.8
CC(Sc1nnc(-c2ccccc2)n1N)C(=O)O (stereo not drawn) | 2.7 | .
CCOC(=O)C1CCN(C(=O)c2cc3c(ccc4ccccc43)o2)CC1 | -0.75 | 0.73
CN(C)S(=O)(=O)c1cccc(COC(=O)c2cnccn2)c1 | 0.25 | .
CCCN1Cc2cccc(C(=O)NCc3cccs3)c2C1=O | -1.2 | -0.33
COc1ccc(C(=O)N2CC3(C)CC2CC(C)(C)C3)cc1OC (stereo not drawn) | -0.65 | .
CCC(C)(C#CCN1CCOCC1)OC(C)=O (stereo not drawn) | -0.1 | .
CS(=O)(=O)c1ccc(Cl)c(NC(=O)CN2CCN(Cc3ccc(Cl)s3)CC2)c1 | 1.4 | .
C=CCn1c(=O)/c(=C/c2c(O)ccc3ccccc23)s/c1=C(/C#N)c1nnc2n1CCCCC2 | 1.6 | .
CC1CCCC(C)N1C(=O)C1c2ccccc2Oc2ccccc21 (stereo not drawn) | -0.95 | 0.85
CCNC(=O)C(C)N (stereo not drawn) | 0.55 | .
CCN(Cc1ccccc1)C(=O)Cn1c(C(C)O)nc2ccccc21 (stereo not drawn) | -0.15 | -0.41
COc1cc(OC)cc(C2CC(OC(=O)Cn3ncc4ccccc4c3=O)C(=O)N2C)c1 (stereo not drawn) | -0.15 | .
CCOC(=O)C1=C(C)N=c2s/c(=C3\C(=O)N(CC(N)=O)c4ccccc43)c(=O)n2C1c1ccccc1Cl (stereo not drawn) | . | -0.46
CCOC(=O)CC1C(=O)NCCN1Cc1ccc(Cl)c(F)c1 (stereo not drawn) | -0.55 | -0.53
COc1ccc(N=C2SC(C(=O)Nc3ccc(C(=O)O)cc3)CC(=O)N2CCc2ccc(OC)c(OC)c2)cc1 (stereo not drawn) | . | 0.12
CCc1ccccc1NC(=O)CN1CCNCC1 | -0.9 | .
O=C(CSc1nc2ccc(N3C(=O)c4ccccc4C3=O)cc2s1)NCC1CCCO1 (stereo not drawn) | . | -0.23
CCCCn1c(CNC(=O)Cc2ccccc2)nc2ccccc21 | -0.15 | 1.4
O=C(OC1CCCCC1=O)c1cccnc1Cl (stereo not drawn) | -0.3 | 1.4
CC(=O)N=c1sc2cc(C)ccc2n1C | -0.55 | 0.17
COc1ccc(OC)c(NC(=O)c2cc(S(=O)(=O)NCCc3ccc(OC)c(OC)c3)ccc2F)c1 | . | -0.72
CS(=O)(=O)c1ccccc1C(=O)Nc1ccc(-c2nc3ccccc3o2)cc1 | 1.3 | .
COc1ccc2c(c1)C(=NN=C(N)N)c1cc(OC)ccc1-2 | . | -0.27
CCOC(=O)c1ccc(NC(=O)CCOc2cccc(C)c2)cc1 | -0.05 | 0.15
CCCN1CCOC(CC(=O)Nc2ccc(Br)cc2Br)C1=O (stereo not drawn) | 0.7 | 0.11
Cc1cccc(COc2ccc3ccc(=O)oc3c2)c1 | -0.4 | 22
CCOc1ccc(C2=NN3C(C2)c2cccc(OCC)c2OC3c2ccc(OC)cc2)cc1 (stereo not drawn) | . | -1
FC(F)(F)c1cnc(NCc2cccnc2)c(Cl)c1 | . | -0.67
Cc1nn(-c2ccccc2)c2c1CC1(C(=O)NC(=O)c3ccccc31)C1CCCN21 (stereo not drawn) | 1.6 | .
CNC(=O)c1c(NC(=O)c2nc3ccccc3s2)sc(C)c1C | 1.4 | .
Cc1ccc(-c2nc(C=Nc3ccc(C(=O)N(C)c4ccccc4)cc3)c(O)o2)cc1 | . | -1.2
CN(C(=O)c1nn(C)c2c1CSc1ccccc1-2)c1ccccc1Cl | -1.1 | -0.67
CC(=O)N1CCN(C(=O)c2cccc(S(=O)(=O)N(C)C(C)C)c2)CC1 | 0 | .
O=C(c1ccc(Cl)c(Cl)c1)N1OC[C@@H]2COc3ccc4ccccc4c3[C@@H]21 | . | -0.18
CNCC(=O)Nc1cc(C)ccc1C | -0.6 | .
COC(=O)c1ccc(S(=O)(=O)N(CCO)CCO)n1C | -0.35 | -0.6
The list continues:
SMILES | AID504770 | Ba CapD inh
N#CC1=C(N)OC(c2ccccc2)=C(n2cnc([N+](=O)[O-])c2)C1c1cccnc1 (stereo not drawn) | . | -0.36
Cc1ccc(-c2nn3cnnc3c3ccccc23)cc1 | 1.2 | 0.35
CCOc1ccc2nc(NC3=NC(c4ccc(OC)cc4)CC(=O)N3)nc(C)c2c1 (stereo not drawn) | . | 15
COc1ccc(-c2cc(C(F)(F)F)nc(SCCC(=O)N(C)c3ccccc3)n2)cc1 | -0.2 | -0.57
CS(=O)(=O)N(CC(=O)N1CCOCC1)c1ccc(Cl)cc1Cl | . | -0.18
CCOC(=O)c1cn2nc(-c3ccc(OCC)cc3)cc2nc1C | 1.2 | -0.005
CCN(CC)C(=O)c1cc(-c2ccccc2O)on1 | 2 | 14
COc1ccc(/C=C2/SC(=S)N(c3c(C)n(C)n(-c4ccccc4)c3=O)C2=O)cc1OC | . | -2.6
Cc1ccc(COc2ccccc2C(N)=O)cc1 | 0.45 | .
COc1ccccc1NC1=NC2(N=C(N)N1)C(=O)N(C(C)=O)c1ccccc12 (stereo not drawn) | 0.5 | .
CCn1cc(C2=NC(c3ccccc3)CO2)c2ccccc21 (stereo not drawn) | -0.45 | 28
Cn1c(=O)c2c(nc(SCC(=O)Nc3ccc4c(c3)OCO4)n2Cc2ccccc2)n(C)c1=O | . | -0.13
CN(C)S(=O)(=O)c1ccc(NCc2c(C#N)oc3ccc(Br)cc23)cc1 | -0.4 | .
O=C(O)CSc1nnc(-c2ccncc2)n1-c1ccccc1 | -0.15 | -0.29
COc1ccc(-c2sc(/N=C/c3cccs3)c(C#N)c2C)cc1OC | 0.6 | -2.2
COc1ccc(N2CCN(S(=O)(=O)c3ccc(OC)cc3)CC2)cc1 | . | 0.03
CCC(=O)Nc1nnc(CC(=O)N/N=C/c2ccc(O)cc2)s1 | -0.65 | .
